Vaccinia pol inh – vaccinia E9 polymerase processive synthesis inhibition; in vitro processive DNA synthesis, absorbance read-out; active compounds read low; some inactives read as strong as hits; normalized absorbance, % (concentration not given with the values); hit rate 0.94% among 46,000;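 active means replicate mean up to 90% and picked by the depositor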;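 further: 100% = median of the test wells of a plate; 100 nL library stock went into each well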
* hit, by the source's call. This is a subset. The share of hits here may be higher or lower than overall.

Compound,Vaccinia pol inh
COc1ccccc1NC(=O)Nc1nnc(N2CC(C)CC(C)C2)s1 (stereo unspecified),108
O=C(Oc1ccc2ccccc2c1)c1ccccc1Cl,100
CC(CCc1ccccc1)NC(=O)CSc1ncnc2ccccc12 (stereo unspecified),100
O=C(COc1ccccc1)NCc1cn2ccsc2n1,112
Cc1ccc(C(=O)CC(c2ccccc2)S(=O)(=O)c2ccccc2)cc1 (stereo unspecified),100
COc1cc2ccc3c(CCN(C)C)cc(OC)c(OC)c3c2cc1OC,61*
COc1ccccc1NC(=O)CC(C(=O)O)N(C)C (stereo unspecified),103
COc1ccc(C(C2=C(O)CCCC2=O)c2cc3c(cc2O)OCO3)cc1 (stereo unspecified),100
Cn1c2ccccc2c2cnn(CC(=O)N3CCCC3)c(=O)c21,101
CCOC(CCn1c(SC)nc2c(sc3ccccc32)c1=O)OCC,93

In the list so far, 4 contain an aryl methoxy group:
Compound,Vaccinia pol inh
COc1ccccc1NC(=O)Nc1nnc(N2CC(C)CC(C)C2)s1 (stereo unspecified),108
COc1cc2ccc3c(CCN(C)C)cc(OC)c(OC)c3c2cc1OC,61*
COc1ccccc1NC(=O)CC(C(=O)O)N(C)C (stereo unspecified),103
COc1ccc(C(C2=C(O)CCCC2=O)c2cc3c(cc2O)OCO3)cc1 (stereo unspecified),100

(more compounds)
Compound,Vaccinia pol inh
COc1ccc(O)c(C=Nc2cc(C(F)(F)F)ccc2Oc2ccccc2)c1,98
NC(=O)NC1C(=O)c2ccccc2OC1c1ccccc1 (stereo unspecified),107
O=S(=O)(NCc1ccc2[nH]c3c(c2c1)CCCC3)c1ccccc1,101
CCOc1ccccc1C(=O)Nc1nc2ccc(S(C)(=O)=O)cc2s1,107
COc1ccc(C(O)c2nc3ccccc3n2C(C)C)cc1 (stereo unspecified),104
Cc1cccc2c1-c1sc(C(=O)NCCN3CCN(c4cccc(Cl)c4)CC3)cc1CO2,100
CCOC(=O)c1c(-c2cccs2)csc1NC=O,100
Cc1cccc(NC(=O)c2ccc(-n3nc(C)cc3C)cc2)c1,103
COc1ccc(OCC(O)CNC(=O)c2c(-c3ccccc3)noc2C)cc1 (stereo unspecified),100
COc1ccccc1C(=O)Nc1sc2c(c1C(N)=O)CCC2,93
O=c1[nH]c2ccccc2cc1CNc1ccc(Cl)cc1,93
c1ccc(C(c2ccccc2)N2CCN(CC3(c4ccccc4)OCCO3)CC2)cc1,101
N#Cc1cccc(CSc2nc3ccc(C(F)(F)F)cc3[nH]2)c1,89
O=C(NC1CC1)c1cc(-c2cccnc2)nc2ccccc12,80
N#Cc1sc2nc(N3CCCCC3)c3c(c2c1N)CCCC3,93
COC(=O)c1ccc2c(c1)nc(SCc1ccccc1Cl)n1c3ccccc3nc21,102
O=C(Nc1ccccc1)Nc1ccccc1C(=O)NC1CCSC1 (stereo unspecified),96
O=C(CSc1nnc(Cc2ccccc2)o1)N1CCOCC1,94
O=C(COC(=O)c1ccccc1Cl)c1ccc(Cl)cc1,109
CC(C)n1c(C(O)c2ccccc2)nc2ccccc21 (stereo unspecified),98
O=C(Cn1c(=O)[nH]c2ccsc2c1=O)NC1CCCCCC1,94
N#Cc1c(C(F)(F)F)cc(-c2ccccc2)nc1SCC1COc2ccccc2O1 (stereo unspecified),101
CN(C)c1ccc(/C=N/S(=O)(=O)c2ccccc2)cc1,100
CCOC(=O)C1=C(C)N(C)C(C)=C(C(=O)OCC)C1c1ccccc1F,110
CCOC(=O)c1c(C(C)(C)C)oc2ccc(OCc3ccc(C(=O)OC)cc3)cc12,99
N#Cc1ccsc1NC(=O)c1ccc(Br)s1,116
CCN(CC)c1ccc(NC(=O)C(C)C)cc1,100
CNc1ccccc1C(C)(C)c1cc(-c2cc(OC)cc(OC)c2)n[nH]1,91
CC(C)(C)N1C(=O)c2ccccc2C1=O,101
Cc1ccc(S(=O)(=O)NCCC(=O)NC2CCCCCC2)cc1C,102

In a second layout: 4 of the compounds above
CCOC(=O)c1c(C(C)(C)C)oc2ccc(OCc3ccc(C(=O)OC)cc3)cc12
  Vaccinia pol inh = 99

N#Cc1ccsc1NC(=O)c1ccc(Br)s1
  Vaccinia pol inh = 116

CCN(CC)c1ccc(NC(=O)C(C)C)cc1
  Vaccinia pol inh = 100

CNc1ccccc1C(C)(C)c1cc(-c2cc(OC)cc(OC)c2)n[nH]1
  Vaccinia pol inh = 91

Next part
Compound,Vaccinia pol inh
Cc1[nH]c2ccccc2c1CN1CCN(c2ccccn2)CC1,95
CCc1cc2c(=O)c(-n3cnc4ccccc43)coc2cc1O,104
CCCCN(C(=O)c1cc2c(s1)-c1ccccc1OC2)C1CCN(C(C)=O)CC1,98
c1ccc(CN2CCN(c3cccc4[nH]ccc34)CC2)cc1,82
N#Cc1c(N)nc2c(c1-c1ccncc1)CCCC2,100
CCn1c(CNC(=O)c2ccc(OC)cc2)nnc1SC(C)C,100
Cc1csc2sc(COC(=O)Nc3ccccc3)c(C)c12,99
CCCn1cc(SCC(=O)NC2CCCCC2)c2ccccc21,101
Cc1cc(S(N)(=O)=O)c2ncccc2c1,97
COc1ccc(OCC(O)CNC(C)C)c(C(C)(C)C)c1 (stereo unspecified),101
O=C1CCCN2C(=N1)SC(=S)N2CN(Cc1ccccc1)Cc1ccccc1,101
O=C(O)CSc1nc2ccccc2c(=O)[nH]1,100
Cc1cc2c(c(=S)[nH]1)C(=O)O/C2=C/c1ccc(Cl)c(Cl)c1,101
CCCCc1cc(=O)oc2c3c(c(Cl)cc12)OCN(Cc1ccc(OC)c(OC)c1)C3,94
O=S(=O)(c1ccc2ccccc2c1)N1CC=C(c2ccccc2)CC1,102
CC(Cc1ccccc1)NC(=O)c1ccc(N)cc1 (stereo unspecified),107
O=C(NO)c1cccc(C(F)(F)F)c1,101
COC(=O)CSc1c(-c2ccccc2)c2cc(Cl)ccc2[nH]c1=O,100
CC(Nc1nc2nonc2nc1NC(C)c1ccccc1)c1ccccc1 (stereo unspecified),100
CCC(=O)N(CCC(c1ccccc1)C1CCOC(C)(C)C1)Cc1ccc(OC)cc1 (stereo unspecified),100
O=C(COc1ccccc1O)c1cccs1,84
COc1ccccc1N(CC(O)CN1C(C)CCCC1C)S(=O)(=O)c1ccccc1 (stereo unspecified),97
COC(=O)c1ccc(CNC(C)(C)C)o1,105
Nc1c(C(=O)NCCC2=CCCCC2)nnn1-c1cccc(C(F)(F)F)c1,100
Cc1ccc(CCCOC(=O)CN2CCCC2)cc1,103
O=C1C2CCCC1CC(C(=O)N1CCCCC1)C2 (stereo unspecified),105
CCCc1cc(=O)[nH]c(SCC(N)=O)n1,100
Cc1cccc[n+]1C/C=C\c1ccccc1,97
CCCNC(=O)c1ccc2c(c1)sc1nc(-c3ccccc3)cn12,99
Cc1cccc(N2C(=O)N(c3cccc(Cl)c3)C3CS(=O)(=O)CC32)c1 (stereo unspecified),100
CCN1CCCC1CNC(=O)c1cc2c(=O)oc3ccc(C)cc3c2s1 (stereo unspecified),84
CC(C)C1C(C#N)=C(N)OC2=C1C(=O)CC(C)(C)C2 (stereo unspecified),91
O=c1[nH]c2ccc(Br)cc2c(-c2ccccc2)c1N=Cc1ccccc1O,108
O=C(c1cccc(C(=O)N2CCc3ccccc32)c1)N1CCc2ccccc21,101
FC(F)(F)COc1ccc(OCC(F)(F)F)c(-c2ccn[nH]2)c1,102
O=C(OCc1cnc(Cl)s1)c1ccccc1Cl,101
O=C1NC(c2ccccc2)C(C(=O)c2ccco2)=C1O (stereo unspecified),100
CCOc1nc2c(c(-c3ccco3)c1C#N)Cc1ccccc1-2,74
CN(C)c1ccc(N=Cc2c(O)ccc3ccccc23)cc1,93
CN1C(=O)/C(=C/c2ccc(SCc3ccccc3)o2)SC1=S,97
Cc1ccccc1NC(=O)CC1Nc2ccccc2NC1=O (stereo unspecified),100
C=COc1ccc(N2C(=O)c3ccccc3OC2C)cc1 (stereo unspecified),98
CC(=O)N1C(=S)NC(=O)/C1=C\c1c(Cl)cccc1Cl,100
Cc1cccc(CCNC(=O)c2cc(=O)[nH]c3ccc(Br)cc23)c1,103
NC(=O)c1cccc(N2C(=O)c3ccccc3C2=O)c1,98
CCN1/C(=C\C=C2\C(=O)N(C)C(=S)N2C)Sc2ccccc21,101
CCc1nc2ccccc2n1CCCOc1ccc(Cl)cc1,94
Cc1oc(-c2ccc(Cl)cc2)nc1CN1CCC(C(=O)NC2CCCC2)CC1,99
O=C(Oc1ccc(Cl)c2cccnc12)c1cccs1,99
CC1(C)CC(=O)C=C(NC(=O)Nc2ccccc2)C1,102

Next records:
Compound,Vaccinia pol inh
O=C(CCSCc1cnn(-c2ccccc2)c1-n1cccc1)NCc1ccc(F)cc1,106
Cc1ccc(-c2nc(N)oc2-c2ccc(C)cc2)cc1,96
COc1ccc(C(=O)Nc2ccc(-c3n[nH]c(=S)o3)cc2)cc1,103
CC1CCCCC1NC(=O)c1cc2c(s1)CSC2 (stereo unspecified),99
Cc1ccccc1NC(=O)Nc1ccc(OCc2ccccc2)cc1,98
CCOP(=S)(OCC)C(Nc1ccccc1)c1ccccc1 (stereo unspecified),88
O=S(=O)(Cc1nn[nH]n1)c1ccccc1,102
O=C(NC(O)C(=O)c1ccccc1)c1ccco1 (stereo unspecified),99
NC(=O)/C=C/C(=O)Nc1ccc(N2CCOCC2)cc1,101
Cc1ccc(Cc2ccc(=O)[nH]n2)cc1,88
CN(C)c1nnnn1-c1ccccc1,101
Cc1cc(Br)ccc1SCC(=O)OCC(=O)Nc1cc(F)ccc1F,98
CCSc1nnc2c(n1)OC(C(=O)c1ccccc1)Nc1ccccc1-2 (stereo unspecified),101
CCOc1ccccc1NCC(=O)Nc1cc(C)ccc1Cl,99
Cc1ccc(C2(C#N)C(=O)Nc3ccccc32)c(C)c1 (stereo unspecified),104
Cc1nc(C(F)(F)F)ccc1C(=O)Nc1ccccc1-c1ccccc1,108
Cc1cccc(Cc2c(C)c3c(C)[nH]nc3oc2=O)c1,101
CC1(C)Cc2c(C#N)c(NC3CCCCC3)nc(-c3ccco3)c2CO1,85
O=C(O)c1cc([N+](=O)[O-])ccc1NCCCc1ccccc1,99
CC(C)(C)c1ccc(S(=O)c2sc3nc4c(cc3c2N)CCCC4)cc1 (stereo unspecified),100
O=C(O)CCc1nc2ccc(C(=O)O)cc2[nH]1,100
COc1cc(CNC2C3CC4CC(C3)CC2C4)ccc1OCc1cccs1 (stereo unspecified),100
CCN(CC)C(=O)CSc1ncnc2c1nnn2Cc1ccc(F)cc1,90
CCN=C1S/C(=C/c2ccc(-c3ccc(F)cc3)o2)C(=O)N1CC,100
CCc1ccc(NC(=O)Cn2cc3c(n2)CCCC3)cc1,104
O=C(Nc1ccccc1)c1ccc(S(=O)(=O)N2CCOCC2)cc1,98
Cc1ccc(NC(=O)CN2C(=O)/C(=C\c3ccccc3)SC2=S)cc1,101
CN(C(=O)CSc1cccc[n+]1[O-])C1CCCCC1,104
Cc1ccc(S(=O)(=O)CCC#N)cc1,102
CCN(CC)c1ccc2cc(C(N)=O)c(=N)oc2c1,105
N#C/C(=C/c1cccc(Oc2ncccn2)c1)c1ccccc1F,107
Nc1nc(OCC(F)(F)F)cc(-c2ccccc2)n1,99
O=C(O)CNC(=O)c1cc(=O)[nH]c(=O)[nH]1,99
Oc1ccc(Br)cc1/C=N/n1cnnc1,100
CCOc1cccc2cc(C(N)=O)c(=Nc3ccccc3F)oc12,101
COc1ccccc1C(=O)NCCn1cc(SC(=N)N)c2ccccc21,103
O=C1/C(=C\c2ccsc2)CC/C1=C/c1ccsc1,83
COc1cc(C2C3=C(CCCC3=O)Nc3[nH]c(=O)[nH]c(=O)c32)cc(OC)c1OC (stereo unspecified),100
O=c1oc2c(CN3CCOCC3)c(O)ccc2cc1-c1ccccn1,93
COc1ccc(/C=C/C(=O)OCC(=O)Nc2ccccc2Cl)cc1,114
CC(C)c1cc(C(C)C)c(S(=O)NCCCN2CCOCC2)c(C(C)C)c1 (stereo unspecified),100
O=C(Cc1cccs1)N(c1ccccc1)C1C=CS(=O)(=O)C1 (stereo unspecified),90
O=C(On1c(-c2ccccc2)cc2ccccc21)c1ccco1,98
c1ccc2[nH]c(CCc3nc4ccccc4s3)nc2c1,97
N#Cc1ccc(C2SCCCS2)cc1,96
O=C(Cn1nnc(-c2cc(C(F)(F)F)cc(C(F)(F)F)c2)n1)c1ccc(Cl)cc1,106
COc1ccccc1-n1cc(C(=O)NCC(=O)NCC2COc3ccccc3O2)c2ccccc2c1=O (stereo unspecified),93
CC(C)CCNC(=O)c1cn(CC(C)C)c(=O)c2c1c1ccccc1n2C,97
N#Cc1c(N)n(CCc2ccccc2)c2nc3ccccc3nc12,94
COc1ccccc1CC(=O)NCc1ccc(-c2cccs2)cc1,101

(list continues)
Compound,Vaccinia pol inh
O=C1c2ccc(-c3nc4ccccc4c(=O)o3)cc2C(=O)N1CC1CCCO1 (stereo unspecified),98
CCOC(=O)C1=C(c2ccccc2)NC(=S)NC1CC (stereo unspecified),108
CC(=O)NS(=O)(=O)c1ccc(-c2ccc(/C=C3/C(=O)NN(c4cccc(Cl)c4)C3=O)o2)cc1,100
COc1ccc(NC(=O)CSc2nccn2-c2ccccc2)cc1,104
CC(C)NC(=O)c1cc(-c2ccc(Cl)cc2)on1,102
COc1ccc(C(=O)CSc2nsc(SCC(=O)c3ccc(OC)cc3)c2C#N)cc1,100
CCC(=O)NCCc1nc2ccccc2n1CC,102
CCOC(=O)CN1C(=O)S/C(=C\c2ccccc2OCc2ccccc2F)C1=O,99
O=C(Nc1nc2c(ccc3ccccc32)s1)C1CC1,100

Screens as filed in PubChem.
